# Bioassay records: PubChem, several laboratories
# AF4-AF9 inh – inhibitors of AF4 peptide binding to AF9, primary screen, biochemical, AlphaScreen, biotin-AF4 peptide, FLAG-AF9, single point | Protein AF-9 (Homo sapiens), P42568 | inhibition, % at 10 µM | actives 0.47% (n = 350,000);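 active = every replicate reaching a set inhibition limit, whatever the replicate mean, cut at about 25% in these data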;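 also: 0% = plate neutral control median and 100% = total signal loss; the record names both 10 and 1 µM as test concentration; the first replicate is given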
# ALR inh – inhibitors of human ALR sulfhydryl oxidase, primary screen, biochemical, H2O2 detection, HRP-luminol luminescence, single point | FAD-linked sulfhydryl oxidase ALR (Homo sapiens), P55789 | inhibition, % (no concentration beside the values) | purified ALR, DTT oxidation | actives 3.8% (n = 290,000);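 active = mean and each replicate at 75% or more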;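 also: stock transfer was 7.5 nL into about 7.5 µL; 0% = neutral wells and 100% = wells with inactivated enzyme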
# Target sequence (P55789 whole entry, looked up): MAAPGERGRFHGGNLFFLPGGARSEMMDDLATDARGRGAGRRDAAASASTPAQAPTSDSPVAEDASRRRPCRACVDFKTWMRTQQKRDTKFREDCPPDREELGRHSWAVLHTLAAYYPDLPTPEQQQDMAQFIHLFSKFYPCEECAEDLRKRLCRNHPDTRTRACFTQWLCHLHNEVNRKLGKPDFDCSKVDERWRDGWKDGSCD
# E coli growth – E. coli growth inhibition, primary screen, OD600 | Escherichia coli growth, 23 h; hits give low values | OD600 absorbance (concentration not given with the values) | actives 0.21% (n = 330,000) | AID 1053175, 2014;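 active = OD600 absorbance below the run mean of sample wells minus 3.6 SD, in any replicate, cut at about 0.56 in these data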;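 also: stock transfer was 300 nL into about 60 µL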
# Ecoli rRNA inh – reduced GFP signal of wild-type E. coli, primary screen, bacterial rRNA inhibitor project, GFP/RFP fluorescence, OD600, single point; GFP signal change (wild-type ribosome), % (no concentration beside the values); actives 1.6% (n = 350,000); E. coli WT GFP vs humanized-ribosome RFP mutants, 24 h; hits give low values; DMSO median 0, no signal -100; AID 720706, 2013;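 active = significant combined selectivity score with lowered wild-type GFP, culture density cut under 30%, mutant RFP and density less affected; inactive = any of these conditions unmet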; also: one replicate is shown; some compounds called inactive have numbers as strong as hits
# HNF4A DNA FP – change in binding of human HNF4A to DNA, primary screen, biochemical, fluorescence polarization, FITC-DNA; activity change, % at 10 µM; actives 0.3% (n = 360,000); AID 1224865, 2016; 1 h; in the data active = activity change above about 30%, passing the limit was not always enough;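 also: controls were the assay level and a saturating level of protein; the project sought stronger binding though the title names inhibitors; some compounds called inactive have numbers as strong as hits; positive values seem to mean higher polarization but the record does not say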
# Target sequence (P41235 whole entry, looked up): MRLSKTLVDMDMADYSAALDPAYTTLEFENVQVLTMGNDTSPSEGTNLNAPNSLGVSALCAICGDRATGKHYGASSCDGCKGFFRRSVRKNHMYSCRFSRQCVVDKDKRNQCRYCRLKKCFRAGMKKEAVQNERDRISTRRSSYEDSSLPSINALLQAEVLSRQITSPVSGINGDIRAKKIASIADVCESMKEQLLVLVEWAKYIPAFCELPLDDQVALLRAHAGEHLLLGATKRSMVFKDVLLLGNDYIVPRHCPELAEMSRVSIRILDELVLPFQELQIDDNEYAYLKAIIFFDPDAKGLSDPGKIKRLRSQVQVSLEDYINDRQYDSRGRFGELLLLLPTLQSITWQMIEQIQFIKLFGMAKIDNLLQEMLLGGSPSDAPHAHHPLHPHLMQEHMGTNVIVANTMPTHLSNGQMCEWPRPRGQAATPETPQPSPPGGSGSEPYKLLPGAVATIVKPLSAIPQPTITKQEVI
# FGF22 binding – binders of human FGF22 protein, primary screen, FGF22 synaptogenesis inhibitor project, biophysical, thermal shift, single point; Fibroblast growth factor 22 (Homo sapiens), Q9HCT0; calls only at 9.99 µM; actives 1.5% (n = 340,000); recombinant FGF22 thermal shift, SYPRO orange fluorescence; percent of sucrose octasulfate shift, DMSO zero;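 active = melting point raised past a set limit in the mean and every replicate; three in four hits are not shown here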
# Target sequence (Q9HCT0 whole entry, looked up): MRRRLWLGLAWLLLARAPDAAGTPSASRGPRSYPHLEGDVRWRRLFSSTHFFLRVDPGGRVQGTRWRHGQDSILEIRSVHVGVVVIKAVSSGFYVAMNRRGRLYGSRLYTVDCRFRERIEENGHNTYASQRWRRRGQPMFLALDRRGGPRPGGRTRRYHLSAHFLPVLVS
# Vif TR-FRET – inhibitors of Vif binding to APOBEC3G peptide, primary screen, biochemical, TR-FRET, GST-Vif 1-94, biotin-A3G peptide, dose response retest (AID 1117319). inhibition, %; hits with a dose series show IC50 in µM. Virion infectivity factor (Human immunodeficiency virus type 1 group M subtype B (isolate …. TR-FRET GST-Vif / biotin-A3G peptide binding; higher % means a stronger effect; test concentration not given here; strong numbers were not always called active. actives 0.57% (n = 260,000);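 active = above the screen mean plus three standard deviations and confirmed in dose response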;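 also: Vif residues 1-94 fused to GST binding biotinylated APOBEC3G peptide 110-148; 0% = full assay without inhibitor and 100% = GST in place of GST-Vif; retest series ran down from 100 µM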
# Ecoli rRNA inh OD600 – second read-out of Ecoli rRNA inh, no call of its own (marks repeat the call); OD600 change, %; measured here: OD600 growth;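 optical density of the mix in the first replicate; 0 = DMSO median and -100 = no signal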
# Ecoli rRNA inh RFP – further read-out of Ecoli rRNA inh, marked with its call; RFP signal change, %; measured here: RFP humanized mutant strains;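 first replicate; 0 = DMSO median and -100 = no signal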
# Starred values were filed as active, the others as inactive; i = inactive; / = not tested or not shown; + = active, no number; & = joins results of further samples.
SMILES,AF4-AF9 inh,ALR inh,E coli growth,Ecoli rRNA inh,Ecoli rRNA inh OD600,Ecoli rRNA inh RFP,HNF4A DNA FP,FGF22 binding,Vif TR-FRET
CCOc1ccc(/C=C2\SC(=S)NC2=O)cc1OC,-0.2,59,0.65,-7,-21,-3.5,3.7,i,4%
Cc1cc(NC(=O)COC(=O)c2ccc(C)c(C)c2)no1,-3.0,-14,0.71,8,8,-1.6,-2.1,i,0%
NCC[C@@H]1CC[C@@H](NC(=O)C2CCCC2)[C@H](CO)O1,-1.5,/,/,1,0,-4.0,/,i,/
Cc1cc(=O)n2c(-c3ccccc3C)n[nH]c2n1,/,3,0.7,/,/,/,2.1,/,0%
CCOc1ccc(CN2CCC(Cc3ccccc3)CC2)cc1,-5.8,-4,0.61,6,2,3.5,-1.0,i,3%
Cc1cc(-c2nc(-c3ccncc3)no2)ccc1[N+](=O)[O-],-2.7,-16,0.66,3,5,3.4,1.4,i,/
Cc1cccc(NC(=O)CSCC(=O)NCc2cccc(C(F)(F)F)c2)c1,-0.8,6,0.69,-17,-18,-3.5,-2.2,i,/
Cc1ccc2c(c1)c1c3n2CCCN(Cc2ccccc2)C3CCC1 (centres undefined),32*,-23,0.62,-18,-4,-0.4,-0.6,i,10%
CCCCN1C(C)=CC(=C2C(=O)c3ccccc3C2=O)C=C1C,1.6,10,0.7,-7,0,-6.0,-0.1,i,-27%
CC(C)c1nnc(NC(=O)CCC(=O)N2CCN(c3ccccn3)CC2)s1,/,-6,0.69,/,/,/,2.5,/,11%
NS(=O)(=O)c1ccc(NC(=S)N2CCN(C(=O)C3CCCO3)CC2)cc1 (centres undefined),/,2,0.69,/,/,/,-1.5,/,-10%
Cc1ccccc1CSCCC(=O)NCCC1=CCCCC1,/,74,0.7,/,/,/,1.1,/,-10%
CO[C@@H]1CN(C)C(=O)c2cc(NS(C)(=O)=O)ccc2OC[C@@H](C)N(Cc2ccccc2)C[C@@H]1C,-1.7,/,/,-1,0,1.2,/,i,/
CCCCN(CC)CCNC(=O)c1cc2c(C)nc3ccccc3c2o1,-2.2,16,0.79,0,9,1.1,1.4,i,-1%
O=C(Nc1cc(F)ccc1F)N1CCCCN2[C@H](C1)[C@@H](c1ccc(-c3cccnc3)cc1)[C@@H]2CO,-1.8,/,/,-7,-14,-0.2,/,i,/
O=C(NCC1CCCO1)c1nc2c(nnn2Cc2ccc(F)cc2)c(=O)[nH]1 (centres undefined),/,-15,0.66,/,/,/,-0.2,/,5%
CCCN1[C@@H]2c3ccc(-c4ccc(F)cc4)c(=O)n3C[C@@H]2[C@@H](CO)[C@@H]1C(=O)N[C@@H](C)c1ccccc1,7.6,/,/,-21,-54,34,/,i,/
CN1C(=O)c2cccc(NC(=O)C3CCCCC3)c2C1=O,3.5,-5,0.77,-1,-2,-0.3,-2.0,i,9%
c1ccc2oc(-c3csc(N4CCOCC4)n3)cc2c1,2.3,2,0.71,8,-2,0.9,5.2,/,/
CCC(=O)N1c2ccc(S(=O)(=O)CCC(=O)NCc3ccc4c(c3)OCO4)cc2CC1C (centres undefined),/,-5,0.76,/,/,/,-0.8,/,-4%
Nc1c(N2CCCCC2)c2ccccc2oc1=O,6.5,-25,0.68,-2,-4,-2.4,-5.4,i,14%
C=CCC[C@@H](CCCCC)OC(=O)/C=C/[C@H](O)[C@@H](O)C[C@@H](O)CC=C,-0.4,/,/,5,0,-2.5,-1.6,i,/
CCC(C)C(NC(=O)C1CCC(C)CC1)C(=O)NC(C(=O)OC)C(C)C (centres undefined),/,-5,0.68,/,/,/,-2.7,/,0%
c1coc(CNc2c3c(nc4ccccc24)CCC3)c1,/,-13,0.66,/,/,/,-13,/,20%
Clc1ccc(CN2CCC(c3nc4ccc(Cl)cc4[nH]3)CC2)cc1,/,-6,0.6,/,/,/,14,/,-6%
O=C(COC(=O)C1COc2ccccc2O1)Nc1cccc(Cl)c1 (centres undefined),0.5,4,0.65,3,0,-3.0,2.3,i,-11%
Cc1ccccc1OCC(=O)Nc1ccccc1N1CCCCC1,/,-17,0.7,/,/,/,-0.7,/,6%
COC(=O)c1ccc(NC(=O)CSc2nnc(CNc3ccc(F)cc3)n2C)cc1,0.7,-44,0.63,-1,4,2.1,5.9,i,-4%
C=CCn1c(O)c(C=Nc2ccccc2)sc1=S,1.3,66,0.75,-22*,-17*,2.3*,-0.6,i,12%
CC(=O)N1CC(C)Oc2ccc(S(=O)(=O)NC(CC(=O)O)c3ccccc3)cc21 (centres undefined),1.1,1,0.72,17,22,6.5,-0.7,i,/
COc1ccc(N2Cc3ccccc3C2=O)cc1,-3.1,/,0.64,0,-5,-0.5,1.9,i,-2%
Cc1cc(C(=O)OCC(=O)Nc2nc(-c3ccccc3)cs2)c(C)o1,/,-12,0.78,/,/,/,-0.6,/,-1%
Nc1cccc(-c2cc(-c3ccccc3)nc(-c3cccc(N)c3)n2)c1,/,-8,0.74,/,/,/,1.4,/,16%
COc1cc(NC(=O)CN2C(=O)c3ccccc3Sc3ccc(C(=O)N4CCOCC4)cc32)cc(OC)c1OC,7.3,-36,0.7,-2,-1,1.1,-0.1,i,8%
CCOc1ccccc1C(=O)Nc1cccc(-c2nnc(-c3ccccc3)o2)c1,/,-15,0.71,/,/,/,-1.3,/,0%
CCN1CCN(CC(=O)c2ccc(C)cc2)CC1,10,/,0.67,-11,-24,7.2,-2.5,i,-3%
Cc1nnc(SCC(=O)NCc2ccc(Cl)cc2)[nH]c1=O,/,38,0.72,/,/,/,1.0,/,-1%
Clc1ccc(Cn2nnc(-c3ccc(CN4CCOCC4)cc3)n2)cc1,/,-6,0.67,/,/,/,-1.9,/,-2%
CCn1cc(CNC(=O)c2cc(Cl)ccc2OC)c(C)n1,/,-7,0.76,/,/,/,0.8,/,0%
CSc1ccc(CN(C)C(=O)C2CCN(C(=O)Nc3ccccc3)CC2)cc1,2.4,/,0.6,-4,-14,-1.6,-4.5,i,/
O=C1CCc2cc(S(=O)(=O)NCc3ccccc3Cl)cc3c2N1CC3,-19,1,0.64,0,-1,0.2,0.5,i,3%
C=CCNC(=O)/C(=C\C=C\c1ccccc1)NC(=O)c1ccccc1Cl,-1.9,-4,0.64,-1,-3,-1.4,2.0,i,/
Cc1ccc(/C=N/N(Cc2ccccc2)c2ccccc2)o1,-1.6,10,/,-3,-6,-2.4,-5.8,i,-9%
CC(NC(=O)c1ccc(S(C)(=O)=O)cc1)c1cccc2ccccc12 (centres undefined),-2.2,-6,0.66,2,5,-1.2,-1.3,i,9%
COc1cc(NC(=O)CSc2nnc3c(n2)[nH]c2ccc(S(=O)(=O)NC(C)C)cc23)cc(OC)c1OC,-14,-11,0.69,5,14,1.2,-6.3,/,1%
COc1cccc(NC(=O)c2cccc(N3C(=O)C4C5C=CC(C5)C4C3=O)c2)c1 (centres undefined),1.4,-7,0.67,-5,-8,-4.1,3.5,i,-9%
O=C(N/N=C/c1ccoc1)c1cc(O)cc(O)c1,-2.1,20,/,-3,14,-0.1,-34,i,/
C[C@@H]1CN([C@@H](C)CO)S(=O)(=O)c2ccc(C#CC3(O)CCCC3)cc2O[C@H]1CN(C)C(=O)Cc1ccccc1,2.8,/,/,-6,-18,-3.3,/,i,/
COc1ccc(NC(=O)CCCn2c(=O)oc3ccccc32)cc1Cl,-1.4,-2,0.68,-4,-7,-4.2,1.4,/,-7%
O=C(C1CCC1)N1CCc2cc(S(=O)(=O)NC3CCCc4ccccc43)ccc21 (centres undefined),-25,-3,0.67,9,-1,-5.6,-3.5,i,2%

# Continued; it opens with the 4 that closed the last part.
SMILES,AF4-AF9 inh,ALR inh,E coli growth,Ecoli rRNA inh,Ecoli rRNA inh OD600,Ecoli rRNA inh RFP,HNF4A DNA FP,FGF22 binding,Vif TR-FRET
O=C(N/N=C/c1ccoc1)c1cc(O)cc(O)c1,-2.1,20,/,-3,14,-0.1,-34,i,/
C[C@@H]1CN([C@@H](C)CO)S(=O)(=O)c2ccc(C#CC3(O)CCCC3)cc2O[C@H]1CN(C)C(=O)Cc1ccccc1,2.8,/,/,-6,-18,-3.3,/,i,/
COc1ccc(NC(=O)CCCn2c(=O)oc3ccccc32)cc1Cl,-1.4,-2,0.68,-4,-7,-4.2,1.4,/,-7%
O=C(C1CCC1)N1CCc2cc(S(=O)(=O)NC3CCCc4ccccc43)ccc21 (centres undefined),-25,-3,0.67,9,-1,-5.6,-3.5,i,2%
Cc1cc(C)cc(NC(=O)COC(=O)CCCC2=NS(=O)(=O)c3ccccc3N2)c1,-2.8,-1,0.68,-26,-21,-0.4,-1.5,i,8%
CCCCC(=O)NCCc1cc2c(OC)ccc(OC)c2[nH]c1=O,/,-14,0.7,/,/,/,-2.5,/,-1%
O=C1C2C3C=CC(C3)C2C(=O)N1/N=C/c1cc(Br)cc([N+](=O)[O-])c1O (centres undefined),/,0,/,/,/,/,-1.7,/,-5%
COc1ccc(CCn2c(C3CCCCC3)nc3c(c(=O)c4ccccc4n3C)c2=O)cc1OC,2.0,-13,0.62,/,/,/,1.2,i,13%
C[C@@H]1CN([C@H](C)CO)C(=O)CCCn2cc(nn2)CO[C@H]1CN(C)S(=O)(=O)c1cccc(F)c1,-2.0&0.7,/,/,19&-2,13&-4,3.4&-1.6,-2.8,i,/
COc1ccc(/C=C(\NC(=O)c2cccs2)C(=O)Nc2ccc(C)cc2)cc1OC,/,0,0.7,/,/,/,-0.3,/,-4%
COc1ccc(N(CC(=O)NCCc2ccc(Cl)cc2)S(=O)(=O)c2c(C)[nH]c(=O)[nH]c2=O)cc1,-0.6,-2,0.68,-4,-11,1.2,3.2,i,-8%
Cc1nc2cc(C(=O)NCc3ccc4c(c3)OCO4)ccc2n1-c1ccc(Br)cc1,0.4,2,0.7,-21,-26,27,7.5,+,/
Cc1ccc2cc(CN(Cc3nnnn3C3CCCCC3)CC3CCCO3)c(=O)[nH]c2c1 (centres undefined),/,-15,0.67,/,/,/,2.4,/,4%
Cc1cc(=O)oc2cc(OC(=O)c3ccccc3)ccc12,1.0,/,0.78,1,13,-10,2.4,i,/
CC(=O)N1Cc2cc(C(=O)NCc3cccc(F)c3)nc(-c3cccc(C4=CCCC4)c3)c2[C@H]1CCO,2.2,/,/,-4,-6,7.7,1.5,i,/
CCCc1nc2nc(C)c(NS(=O)(=O)c3ccc(CC(C)C)cc3)c(=O)n2[nH]1,-2.2,17,0.66,0,-13,1.6,-2.0,i,/
Cc1ccc(C(=O)NCCc2nnc3c(C(F)(F)F)cc(Cl)cn23)o1,-0.8,1,0.68,10,10,4.2,-0.6,i,/
Cc1onc(-c2ccccc2)c1-c1nnc(CN2CCN(S(=O)(=O)c3ccccc3)CC2)o1,-0.9,-2,0.61,-7,-6,4.1,0.2,i,0%
COc1ccc(CN(C)C[C@H]2Oc3ccc(NS(=O)(=O)c4ccc(F)cc4)cc3CC(=O)N([C@H](C)CO)C[C@H]2C)cc1,-1.2,/,/,2,-3,1.1,/,i,/
O=C(C1CCC1)N1C[C@@H]2[C@H](c3ccccc31)[C@H](CO)N2C(=O)Nc1cccc(F)c1,35*,/,/,0,2,0.4,/,i,/

# This is a subset (hit frequency here may not be typical).
